# D2 PAM – Beta-Arrestin HTS for Positive Allosteric Modulators of the Human D2 Dopamine Receptor: Potentiators | AID 624464, 2012 | D(2) dopamine receptor (Homo sapiens), P14416 | potentiation, % (no concentration beside the values) | 360,000 tested, 0.23% active | DiscoveRx D2 beta-arrestin cells, luminescence, 90 min; 100% = 57 uM dopamine signal; active = potentiation of 50% or more; inconclusive = 30% to 50%; inactive = 30% or less;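 note: compound concentration not given in the record; tested on top of an EC20 dose of dopamine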
# Target sequence (P14416 whole entry, looked up): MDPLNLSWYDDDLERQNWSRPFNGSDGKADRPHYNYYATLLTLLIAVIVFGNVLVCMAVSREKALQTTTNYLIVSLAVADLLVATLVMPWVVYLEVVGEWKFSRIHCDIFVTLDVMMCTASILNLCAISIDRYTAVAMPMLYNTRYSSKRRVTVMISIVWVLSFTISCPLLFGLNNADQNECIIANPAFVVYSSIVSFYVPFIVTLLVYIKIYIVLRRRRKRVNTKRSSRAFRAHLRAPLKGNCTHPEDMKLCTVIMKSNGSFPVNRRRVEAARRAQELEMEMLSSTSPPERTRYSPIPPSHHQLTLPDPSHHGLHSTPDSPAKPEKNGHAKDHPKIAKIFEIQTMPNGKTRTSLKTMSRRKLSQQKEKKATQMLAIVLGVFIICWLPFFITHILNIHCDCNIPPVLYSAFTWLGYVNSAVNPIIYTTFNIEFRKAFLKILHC
#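 PathHunter D2 cells, attached overnight at 37 deg C, received compound in DMSO plus dopamine at EC20 (50 nM final) for 90 min at 37 deg C. Beta-arrestin recruitment was read as luminescence after 1 h with detection reagent at ambient temperature.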
# CtBP-E1A blk – qHTS Assay for Inhibitors of the CtBP/E1A Interaction. AID 651724, 2012. CtBP / adenovirus E1A interaction (AlphaScreen). 340,000 tested, 0.49% active. AlphaScreen GST-E1A/His-CtBP binding, 1536-well; active compounds read low; control for the full effect not named in the record. activity change, % (concentration not given with the values); in the data active means activity change below about -65%; inconclusive means about -30% to -65%; inactive means above about -30%; note: % is set by controls: 0 for no effect and ±100 for the full control effect
#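 Steps: dispense buffer (Tris pH 8.0, NaCl 300 mM, TCEP 1 mM, BSA, Tween 20); add 5X protein mix (GST-E1A, His-CtBP, 125 nM each); pin 23 nL compound; 2 h at 37 °C, dark; add 5X beads (50 ug/mL); 1 h; read.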
# TRPV1 PAM – HTS Assay for Compounds that Act as Potentiators of the Vanilloid Receptor 1; 320,000 tested, 0.02% active; AID 540277, 2011; potentiation, % at 8.33 µM; TRPV1-expressing cells, Fluo-8 calcium influx, capsaicin EC20 potentiation; host cell line not named in the record; control for the full effect not named in the record; Transient receptor potential cation channel subfamily V member 1 (Homo sapiens), Q8NER1; active means potentiation above 80%; inconclusive means 30% to 80%; inactive means below 30%; note: 0% is about no effect
#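 Fluo-8 calcium influx in TRPV1-expressing cells, kinetic read (ex 480/em 520 nm). Compound added and read 3 min for agonist activity, followed by capsaicin at EC20 final and 2 min further read for enhancement.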
# TRPML1 inh – qHTS for Inhibitors of the Human Mucolipin Transient Receptor Potential 1 (TRPML1) | Mucolipin-1 (Homo sapiens), Q9GZU1 | TRPML1-inducible cells, Ca2+ dye fluorescence, FDSS; active compounds read low; inhibition of EC80 agonist-evoked calcium signal | activity change, negative = inhibition, % (test concentration not listed) | 390,000 tested, 0.02% active | AID 624415, 2012; in the data active means activity change below about -50%; inconclusive means about -30% to -50%; inactive means above about -30%;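 note: stimulus is agonist 54-4 at its EC80 concentration; % is set by controls: 0 for no effect and ±100 for the full control effect; compound concentration not given in the record; the text of the record puts the active cut at -80%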
# Target sequence (Q9GZU1 whole entry, looked up): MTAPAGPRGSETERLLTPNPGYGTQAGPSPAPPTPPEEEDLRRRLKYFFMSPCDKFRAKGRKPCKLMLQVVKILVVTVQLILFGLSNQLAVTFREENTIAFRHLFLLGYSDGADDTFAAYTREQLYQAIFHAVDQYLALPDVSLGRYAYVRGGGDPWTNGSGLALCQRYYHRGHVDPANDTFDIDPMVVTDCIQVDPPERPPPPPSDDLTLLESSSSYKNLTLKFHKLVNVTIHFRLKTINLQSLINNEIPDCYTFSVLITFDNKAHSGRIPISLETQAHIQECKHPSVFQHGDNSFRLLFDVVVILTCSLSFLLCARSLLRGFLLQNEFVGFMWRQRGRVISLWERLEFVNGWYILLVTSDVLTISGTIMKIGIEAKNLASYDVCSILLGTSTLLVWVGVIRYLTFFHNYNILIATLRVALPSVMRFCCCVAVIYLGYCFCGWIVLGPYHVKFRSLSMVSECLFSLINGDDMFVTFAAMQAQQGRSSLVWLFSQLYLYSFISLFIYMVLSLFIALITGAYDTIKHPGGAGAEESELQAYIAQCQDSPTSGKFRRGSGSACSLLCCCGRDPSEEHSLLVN
#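 Calcium fluorescence in TRPML1-DL cells induced overnight with Tet: a 110 s read after compound pin addition, then a 110 s antagonist read after challenge with 54-4 at 4 uM final (EC80).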
# TRPML1 ag – qHTS for Agonists of the Human Mucolipin Transient Receptor Potential 1 (TRPML1); activation, % (concentration not given with the values); TRPML1-expressing cells, Ca2+ dye fluorescence, FDSS; host cell line not named in the record; reference of the full effect not given here; 410,000 tested, 0.12% active; in the data active = activation above about 50%; inconclusive = about 30% to 50%; inactive = below about 30%; note: 0% is about no effect; the text of the record puts the active cut at 80%
#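 Tetracycline-induced TRPML1-DL cells are seeded and incubated overnight before loading with a no-wash Ca2+ dye and quencher. Agonist activity is taken from the 110 s fluorescence read following compound pin-transfer on an FDSS, before EC80 54-4 challenge.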
# Six1-Eya2 inh – qHTS Assay for Inhibitors of the Six1/Eya2 Interaction; Homeobox protein SIX1 (Homo sapiens) + Protein phosphatase EYA2 (Homo sapiens), …; AlphaScreen GST-Six1/His-Eya2 binding, biochemical; active compounds read low; control for the full effect not named in the record; activity change, % (test concentration not listed); 360,000 tested, 0.56% active; AID 651725, 2012; in the data active = activity change below about -65%; inconclusive = about -30% to -65%; inactive = above about -30%; note: % is set by controls: 0 for no effect and ±100 for the full control effect
#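 AlphaScreen luminescence read after one hour at 37 °C in darkness. Pin-transferred compounds met GST-Six1 and His-Eya2 protein (5X stock 250 nM/500 nM) plus glutathione donor and Ni-chelate acceptor beads (5X, 50 ug/mL).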
# * hit, by the source's call; u = inconclusive; x = no result given; & = joins results of further samples. These rows are one share of the data; the hit share may differ from the screen's.
# Keys: A = D2 PAM; B = CtBP-E1A blk; C = TRPV1 PAM; D = TRPML1 inh; E = TRPML1 ag; F = Six1-Eya2 inh
> CC(C)c1oc(=O)cc2c1[C@@H](O)[C@H]1OC(=O)[C@@]3(C)C[C@@H](O)[C@@H](O)[C@@]2(C)C13 (stereo partly drawn)
  A = -16; B = 5; C = 5; D = 11; E = -0.5; F = 4
> COc1cc(C(=O)O)cc(OC)c1OC
  A = -4; B = 6; C = x; D = x; E = x; F = 8
> CCN1CC2(COC(=O)c3ccccc3N)CCC(OC)C34C5CC6C(OC)CC(O)(C5C6OC)C(O)(C(OC)C23)C14 (stereo not drawn)
  A = 0; B = 7; C = 0; D = -10; E = 0.0; F = 5
> COC(=O)C1=C(c2ccccc2OCc2ccccc2)C[C@@H]2CC[C@H]1N2C(=O)NCc1ccc(Cl)cc1
  A = -15; B = x; C = -6; D = 15; E = 1.8; F = -9
> O=C(C1CC(=O)N(C2CCCCCCC2)C1)N1CCC2(CC1)OCCO2 (stereo not drawn)
  A = -7; B = -6; C = 30; D = 6; E = 0.2; F = 3
> COC(=O)CC1NC2CCCCC2NC1=O (stereo not drawn)
  A = -8; B = 0; C = -2; D = 1; E = -0.5; F = 3
> COc1ccc(C2=NCC(=O)N(CC(=O)NCc3ccco3)c3sc4c(c32)CCCC4)cc1OC
  A = -4; B = 8; C = 10; D = 15; E = 0.7; F = -8
> CCCc1cc(=O)oc2cc(OCC(=O)N3CCN(Cc4ccc5c(c4)OCO5)CC3)ccc12
  A = -11; B = -28; C = -10; D = 9; E = -0.9; F = -21
> CC/C(=N\N1CCCCC1)c1c(O)[nH]c(=O)[nH]c1=O
  A = -5; B = 10; C = 29; D = 23; E = -0.7; F = 1
> CCCOc1ccc(C(C)=O)cc1Cc1c(O)[nH]c(=S)[nH]c1=O
  A = -20; B = 0; C = -4; D = -4; E = -1.1; F = 31
> Cc1nc2cc(C(=O)N3CCC4(CC3)OCCO4)ccc2n1-c1cccc(F)c1
  A = -20; B = -3; C = -8; D = -4; E = -0.2; F = 11
> CC1CN=C(Nc2ccc(F)cc2)S1 (stereo not drawn)
  A = -2; B = 0; C = 0; D = 5; E = 0.4; F = 4
> CCOC(=O)c1c(-n2c(C)cc(C=C3C(=O)NC(=O)NC3=O)c2C)sc2c1CCCC2
  A = 4; B = 2; C = -17; D = 34; E = -0.2; F = -4
> OC1/C(=C/c2ccc(C(F)(F)F)cc2)N2CCC1CC2 (stereo not drawn)
  A = -8; B = 0; C = 3; D = -1; E = 0.7; F = 14
> COc1ccc(CCNC(=O)c2c(N)n(CCN3CCOCC3)c3nc4ccccc4nc23)cc1OC
  A = 1; B = 14; C = -5; D = -10; E = 2.8; F = 9
> O=C1c2cccc(N3CCNCC3)c2C2CCCCN12 (stereo not drawn)
  A = -8; B = 2; C = x; D = x; E = -0.1; F = 6
> O=c1[nH]c(=S)n(C2CC2)c(O)c1C=NCc1cccnc1
  A = 1; B = 2; C = 0; D = -4; E = -0.3; F = -3
> COc1ccc(C(CC(C)=O)c2c(O)c3ccccc3oc2=O)cc1OC (stereo not drawn)
  A = -12; B = 5; C = x; D = 10; E = -0.1; F = 8
> CCN1CCN(C(=O)COc2cc(=O)n(CC)c3ccccc23)CC1
  A = -13; B = -1; C = 23; D = 9; E = 0.5; F = 7
> OCC1CN1C1CCCCC1 (stereo not drawn)
  A = -3; B = 4; C = x; D = -5; E = -0.3; F = -7
> COC(=O)C1=C(c2ccc(S(C)(=O)=O)cc2)C[C@@H]2CC[C@H]1N2C(=O)N1CCCC1
  A = -28; B = 1; C = x; D = 1; E = -0.8; F = 7
> COc1ccc(-n2c(-c3ccco3)nc3ccccc3c2=O)cc1
  A = -2; B = -7; C = 3; D = 26; E = 0.2; F = -8
> O=c1c2ccccc2nc(/C=C/c2ccc3c(c2)OCO3)n1-c1cccc(O)c1
  A = 0; B = 5; C = 4; D = -26; E = 1.9; F = 5
> Cc1ccc(/C=C2\C(=O)NC(=O)N(CC3CCCO3)C2=O)s1 (stereo not drawn)
  A = -5; B = 0; C = -1; D = 17; E = -0.3; F = 3
> O=C(O)C(O)(c1ccc(Cl)cc1)C1(O)CCCC1 (stereo not drawn)
  A = -8; B = -13; C = x; D = 57; E = 0.3; F = 14
> CC(=O)OC12COC1CC(O)C1(C)C(=O)C(O)C3=C(C)C(O)CC(O)(C(OC(=O)c4ccccc4)C21)C3(C)C (stereo not drawn)
  A = 4; B = -27; C = x; D = 2; E = 0.7; F = 16
> COc1cc(OC)c(OC)cc1C=O
  A = -3; B = 1; C = x; D = 12; E = 0.4; F = 3
> C/C=C1/CC(C)C(C)(O)C(=O)OCC2CCN3CCC(OC1=O)C23 (stereo not drawn)
  A = 1; B = 4; C = 1; D = -4; E = 0.1; F = 0
> CN1CCN(c2ccc([N+](=O)[O-])c3cccnc23)CC1
  A = -36; B = -6; C = 27; D = -4; E = 0.3; F = 2
> C#CCN1CCN(c2cccc(C(F)(F)F)c2)CC1
  A = -15; B = 0; C = 13; D = 0; E = -0.1; F = -2
> Cc1c(NS(=O)(=O)c2ccccc2)ccc([N+](=O)[O-])c1Cl
  A = -13; B = 0; C = x; D = 13; E = 0.9; F = 1
> COP(=O)(OC)C(NC(=O)/C=C/c1ccccc1)C(Cl)(Cl)Cl (stereo not drawn)
  A = -6; B = x; C = -5; D = -14; E = 0.0; F = 1
> C=C1C(=O)O[C@@H]2C[C@@H](C)[C@@H]3C=CC(=O)[C@@]3(C)[C@@H](OC(=O)CC(=O)O[C@H]3[C@@H]4C(=C)C(=O)O[C@@H]4C[C@@H](C)[C@@H]4C=CC(=O)[C@]43C)[C@H]12
  A = -29; B = -29; C = u; D = 26; E = 0.1; F = u
> Cn1c(O)c(C=NCCN2CCN(C(=O)Nc3ccccc3)CC2)c(=O)n(C)c1=O
  A = -6; B = 5; C = -2; D = 27; E = 0.9; F = 1
> Clc1cccc(Cl)c1C1N2CCCN12 (stereo not drawn)
  A = -12; B = 3; C = 18; D = 5; E = 0.2; F = -1
> CC(=O)O[C@@H]1CC[C@]2(C)C3CC[C@]4(C)C(=O)[C@H](O)CC4C3[C@@H](OC(C)=O)C[C@H]2C1 (stereo partly drawn)
  A = 2; B = 3; C = x; D = -11; E = -0.5; F = 8
> N#Cc1ccc2nc(-c3ccc(CN4CCC(n5c(=O)[nH]c6ccccc65)CC4)cc3)c(-c3ccccc3)nc2c1
  A = x; B = -25; C = x; D = x; E = 0.6; F = -15
> CCCCCCn1c(O)c(C=Nc2c(C)n(C)n(-c3ccccc3)c2=O)c(=O)[nH]c1=O
  A = -11; B = 1; C = -17; D = 15; E = 0.5; F = -5
> CNC(C(=O)c1ccccc1)C(OC)c1cccc([N+](=O)[O-])c1 (stereo not drawn)
  A = -11; B = -3; C = x; D = -5; E = 0.3; F = 23
> CN1CCN(c2c[nH]c(=O)[nH]c2=O)CC1
  A = 8; B = u; C = 5; D = -3; E = 0.2; F = 22
> O=C(COC(=O)Cc1ccccc1)Nc1nnc(-c2ccccc2)o1
  A = -66; B = u; C = 2; D = -12; E = 1.8; F = u
> Cc1cc(NC(=O)COC(=O)c2c(C)nn(Cc3ccccc3Cl)c2Cl)no1
  A = 3; B = 11; C = 21; D = -12; E = 0.8; F = 5
> O=C1NC(=O)C(=Cc2ccc(OCCOc3ccc([N+](=O)[O-])cc3)cc2)C(=O)N1
  A = -3; B = 4; C = -5; D = 11; E = 0.8; F = -15
> Cc1ccc(-n2c(O)c(/C=N/N3CCCCC3c3cccnc3)c(=O)[nH]c2=S)cc1 (stereo not drawn)
  A = -3; B = -10; C = -3; D = -11; E = 3.3; F = 0
> Cc1ccsc1C(=O)C1CCCN(Cc2cc3ccccc3o2)C1 (stereo not drawn)
  A = -20; B = -9; C = -10; D = 36; E = 1.1; F = -10
> CC1CN1P(=S)(c1ccccc1)N1CC1C (stereo not drawn)
  A = -1; B = 0; C = x; D = -1; E = 0.1; F = 9
> CCc1ccccc1NC(=O)CSc1nnc([C@@H](N)Cc2c[nH]c3ccccc23)o1
  A = -11; B = -6; C = 9; D = 4; E = -0.2; F = -4
> CCC1CCCCN1CC(=O)c1ccc(OC(F)F)cc1 (stereo not drawn)
  A = -36; B = -2; C = -10; D = 16; E = 0.0; F = 1
> COc1ccc(-n2c(Cc3ccccc3)nc3ccccc3c2=O)cc1
  A = -6; B = x; C = 3; D = -8; E = 1.5; F = 2
> COc1ccccc1OCCCn1cc(C(C)=O)c2ccccc21
  A = 1; B = 0; C = 11; D = -21; E = 0.7; F = 2

# New compounds follow.
# Keys: A = D2 PAM; B = CtBP-E1A blk; C = TRPV1 PAM; D = TRPML1 inh; E = TRPML1 ag; F = Six1-Eya2 inh
> S=C(NCCc1ccccc1)N1Cc2ccc(Br)cc2-n2nncc2C1
  A = -13; B = 0; C = x; D = x; E = 0.3; F = 9
> CCOC(=O)CC1=C(C(=O)OCC)C2(C(=O)N1)C(C(=O)OC)=C(N)Oc1ccccc12 (stereo not drawn)
  A = -1; B = -5; C = 5; D = -17; E = 1.7; F = 8
> COc1cc(/C=C/c2nc3ccccc3c(=O)n2-c2ccc(O)cc2)ccc1O
  A = 17; B = 0; C = 2; D = -4; E = 2.7; F = -6
> Cc1c(C(c2ccc(O)cc2)c2c(O)c3ccccc3oc2=O)c(=O)n(-c2ccccc2)n1C (stereo not drawn)
  A = 13; B = 5; C = -2; D = -15&24; E = 0.1&0.3; F = 1
> CN1CCN(Cc2cc(C(C)(C)C)c(O)c(C(C)(C)C)c2)CC1
  A = -29; B = 3; C = 8; D = 5; E = 0.2; F = -1
> O=c1[nH]c(O)c(C=Nc2cccc(F)c2)c(=O)[nH]1
  A = -13; B = x; C = 2; D = 17; E = -0.3; F = 0
> COC(=O)C1=C(c2ccc(C(C)=O)cc2)C[C@@H]2CC[C@H]1N2C(=O)NCCO
  A = -4; B = 3; C = 4; D = -4; E = -0.2; F = 8
> COc1ccc(CC2C(=O)NC(=O)N(c3ccccc3)C2=O)c(OC)c1 (stereo not drawn)
  A = -9; B = 8; C = -3; D = -3; E = 0.3; F = 5

# Single records (already shown).
# OCC1CN1C1CCCCC1 (stereo not drawn) reads D2 PAM: -3; CtBP-E1A blk: 4; TRPV1 PAM: x; TRPML1 inh: -5; TRPML1 ag: -0.3; Six1-Eya2 inh: -7
# O=C(O)C(O)(c1ccc(Cl)cc1)C1(O)CCCC1 (stereo not drawn) reads D2 PAM: -8; CtBP-E1A blk: -13; TRPV1 PAM: x; TRPML1 inh: 57; TRPML1 ag: 0.3; Six1-Eya2 inh: 14
# COc1cc(/C=C/c2nc3ccccc3c(=O)n2-c2ccc(O)cc2)ccc1O reads D2 PAM: 17; CtBP-E1A blk: 0; TRPV1 PAM: 2; TRPML1 inh: -4; TRPML1 ag: 2.7; Six1-Eya2 inh: -6
